# Mtb growth: Mycobacterium tuberculosis H37Rv growth inhibition, cell based, confirmatory dose response (AID 1949); inhibition, % at 10 µg/mL, or IC50 in µg/mL where a hit was titrated; 100,000 compounds, 1.6% hits; most inactive calls were filed without a number and no value below 0 was filed;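 active = confirmed in a dose series; inconclusive = about 50% or more but not retested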;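 also: bacteria grown 7 days with compound before Alamar blue readout; 0% = untreated bacteria and 100% = reference antibiotic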
# Starred values were filed as active, the others as inactive; i = inactive; ? = inconclusive. This is a subset, so the mix of outcomes need not match the whole.
SMILES,Mtb growth
O=C(COc1ccccc1[N+](=O)[O-])Nc1ccc2oc(-c3ccc(F)cc3Cl)nc2c1,1%
C=CCn1c(N)cc(=O)nc1SCC(=O)OC1CC(C)CCC1C(C)C (stereo not drawn),3%
COc1ccc(NC(=O)Cn2cnc3ccccc3c2=O)c(OC)c1,i
O=S(=O)(c1cccs1)N1CCc2ccccc2C1,i
OC(COCc1ccccc1)CN1CCc2ccccc2C1 (stereo not drawn),i
Cc1nc2ccccc2n1S(=O)(=O)N1CCCCCC1,8%
O=C(Nc1ccc(Cl)cc1Cl)c1ccc(Br)cc1,i
COc1ccc(NC(=O)c2cc3ccccc3o2)c(OC)c1,i
COc1ccccc1NC(=O)CSC1CC(=O)N(c2ccc3c(c2)OCO3)C1=O (stereo not drawn),i
O=C(NCCCCO)c1ccc2c3c(cccc13)CC2,i
O=C(CSc1ccc(Cl)cc1)Nc1ccc(N2CCN(Cc3ccccc3F)CC2)cc1,i
Cc1ccc(C(C)C)c(OCc2nnc(SCC(=O)N3CCN(c4ccccc4)CC3)n2C)c1,i
CCCOc1c(Cl)cc(C2C3=C(CCCC3=O)N(CC(=O)O)C3=C2C(=O)CCC3)cc1OC,4%
Cc1c(N(C)C(=O)c2cccc(Br)c2)c(=O)n(-c2ccccc2)n1C,i
CCC(=O)NCc1nc2ccccc2n1Cc1ccc(Cl)cc1Cl,4%
COc1cc(Cl)c(C)cc1NC(=O)CSc1nnc(-c2ccccc2)n1N,i
O=C(Cc1cccs1)NCCN1CCOCC1,i
Cn1c(NCCO)nc2c1c(=O)n(Cc1ccccc1Cl)c(=O)n2C,0%
CCOC(=O)C(C)Oc1cc(C)cc2oc(=O)cc(-c3ccccc3)c12 (stereo not drawn),i
O=C(Nc1cc(C(F)(F)F)ccc1Cl)Nc1cccc2ccccc12,i
Cc1ccc(SCCC(=O)NCc2ccncc2)cc1,i
Cc1ccc(-n2c(-c3ccncc3)n[nH]c2=S)c(C)c1,i
Cc1cc(C)cc(N(C(C)C(=O)NCc2ccc3c(c2)OCO3)S(C)(=O)=O)c1 (stereo not drawn),i
C=CCn1c(=O)c2c(nc3n2CCCN3c2ccc(OCC)cc2)n(C)c1=O,i
O=C(COc1ccc(S(=O)(=O)NCCc2ccccc2)cc1)Nc1ccc(Br)cc1F,i
COC(C(=O)NCc1ccc(Cl)cc1Cl)c1ccccc1 (stereo not drawn),8%
CC(=O)Nc1ccc(-c2cc3ccccc3oc2=O)c(C)c1,i
CC(C)(C)c1cc(N)n2nc(C(C)(C)C)cc2n1,i
C=CCn1c(SCC)nnc1-c1ccc([N+](=O)[O-])cc1,i
C=CCn1c(-c2ccc3ccccc3n2)n[nH]c1=S,i
N#Cc1c(NC(=O)CN2CCCCC2)sc2c1CCC2,i
Cc1ccc(S(=O)(=O)CC(=O)Nc2ccc(S(=O)(=O)Nc3ccccn3)cc2)cc1,i
Cn1c(SCC(=O)C(C)(C)C)nnc1-c1ccncc1,i
Cc1nc2ccccn2c1C(=O)NNS(=O)(=O)c1ccc2c(c1)Cc1ccccc1-2,7%
COC(=O)c1ccccc1NC(=O)C1CC(=O)N(c2ccc(C)c(C)c2)C1 (stereo not drawn),i
COc1ccc(-c2noc(-c3ccc([N+](=O)[O-])cc3Cl)n2)cc1,8%
CCOc1ccc(C(=O)Nc2cccc(C)c2C)cc1OCC,i
CCCC(=O)Nc1ccccc1NC(=O)c1cc(C)ccc1C,i
COc1ccc(-c2cn3c4ccccc4nc3n2CCN2CCOCC2)cc1,i
O=C(Cc1cccs1)Nc1nnc(-c2ccncc2)s1,i
Cc1ccc(-c2n[nH]c(=O)c3ccccc23)cc1S(=O)(=O)NCCO,i
N/C(Cc1ccc(Cl)c(Cl)c1)=N\OC(=O)c1ccccc1F,i
Cc1ccc(SCC(=O)O/N=C(\N)c2ccncc2)cc1,i
O=C(COc1ccc(Cl)cc1)Nc1ccc(O)cc1C(=O)O,14%
O=C(Nc1ccc(NC(=O)c2cccs2)cc1)c1ccc(Br)o1,i
COCCNC(=O)c1nn2c(c1Br)NC(c1cccs1)CC2C(F)(F)F (stereo not drawn),i
CC(C)c1ccccc1Oc1c(C(F)(F)F)oc2c(CN3CCN(C)CC3)c(O)ccc2c1=O,?
COCCCn1c(=N)c(S(=O)(=O)c2ccc(Cl)cc2)cc2c(=O)n3ccccc3nc21,0%
COc1ccc(-c2cn3c4ccccc4nc3n2CCCNC(C)(C)C)cc1,i
COc1cc(S(=O)(=O)Nc2ccncc2)c(OC)cc1Cl,i
CCOc1cccc(C(=O)NC(=S)Nc2ccc3[nH]c(=O)[nH]c3c2)c1,i
O=C(O)CSc1cn(Cc2ccccc2)c2ccccc12,2%
CCCCOc1cccc(C(=O)Nc2ccc(OC)cc2OC)c1,45%
COC(=O)Cc1c(C)c2ccc(OCC(=O)N3CCC(C)CC3)cc2oc1=O,i
COC(=O)c1sccc1NC(=O)COc1ccc(Cl)cc1Cl,i
CSc1nnc(SCCn2c([N+](=O)[O-])cnc2C)s1,i
CCOc1cc(C=O)c(Br)cc1OC1CCCC1,i
O=C(NC12CC3CC(CC(C3)C1)C2)c1cccc(OCc2ccccc2)c1,6%
COc1cc2c(cc1OC)C(c1ccc(C)c([N+](=O)[O-])c1)CC(=O)N2 (stereo not drawn),1%
Cc1cc(C)cc(NC(=O)CCC(=O)OCc2c(F)cccc2Cl)c1,i

# Another view of part of the listing above.
Molecule | Mtb growth
C=CCn1c(SCC)nnc1-c1ccc([N+](=O)[O-])cc1 | i
O=C(NC12CC3CC(CC(C3)C1)C2)c1cccc(OCc2ccccc2)c1 | 6%
COC(C(=O)NCc1ccc(Cl)cc1Cl)c1ccccc1 (stereo not drawn) | 8%
O=C(NCCCCO)c1ccc2c3c(cccc13)CC2 | i
Cc1nc2ccccn2c1C(=O)NNS(=O)(=O)c1ccc2c(c1)Cc1ccccc1-2 | 7%
CCCOc1c(Cl)cc(C2C3=C(CCCC3=O)N(CC(=O)O)C3=C2C(=O)CCC3)cc1OC | 4%
COc1ccc(NC(=O)Cn2cnc3ccccc3c2=O)c(OC)c1 | i
CCCC(=O)Nc1ccccc1NC(=O)c1cc(C)ccc1C | i

# (next part)
SMILES,Mtb growth
Cc1cc(OCC(=O)C(C)(C)C)c2c(C)c(C)c(=O)oc2c1,0%
O=C(CSc1nc2ccccc2o1)Nc1ncccn1,i
CCOC(=O)NC1(C(F)(F)F)C(=O)Nc2c1c(=O)[nH]c(=O)n2CCc1ccccc1 (stereo not drawn),1%
Cc1cc(C)n(-c2nc(N(C)C)nc(N3CCOCC3)n2)n1,9%
CSc1ccccc1C(=O)N1CCCCC1,2%
Cc1ccc(C)c(-c2cc(C(=O)N3CCOCC3)c3ccccc3n2)c1,i
O=C(Nc1ccccc1F)C1(c2ccccc2)CC1(Cl)Cl (stereo not drawn),1%
CCOC(=O)N1CCN(C(=O)COc2ccc(CC)cc2)CC1,2%
CC(C)CC(=O)Nc1ccc(C(=O)c2ccccc2)cc1NC(=O)CC(C)C,i
CCOC(=O)Cc1nnc(Nc2cccc(C)c2)c2ccccc12,2%
O=C(Nc1ccc(OC(F)(F)F)cc1)Nc1cccc([N+](=O)[O-])c1,0.19µg/mL*
C=CCn1c(-c2cccc(C)c2)nc(=S)c2c1CCCC2,i
O=C(Nc1cc(Cl)ccc1O)c1ccc(-c2ccccc2)cc1,i
CSc1cccc(NC(=O)CN(c2cccc(C)c2)S(C)(=O)=O)c1,i
COC(=O)CC1C(=O)NC2CCCCC2N1C(=O)NC1CCCCC1 (stereo not drawn),i
Cc1cc(OC(C)C(=O)NCc2ccncc2)cc(C)c1Cl (stereo not drawn),44%
CCCC(C)C(=O)Nc1ccc(OC)cc1[N+](=O)[O-] (stereo not drawn),i
COCCOC(=O)c1c(C)oc2ccc(OC(=O)c3ccc(OC)cc3)cc12,6%
COC(=O)c1cccc(Cn2nc(C)c(Cl)c2C)c1,1%
CCN(CC)C(=O)Cn1nnc(-c2ccc(C)cc2)n1,i
C=CCN(c1ccccc1C(=O)O)S(=O)(=O)c1ccc(C)cc1,i
CC(C)CNC(=S)NNC(=O)CSCc1cccc(F)c1,i
Cc1[nH]c2ccc(C(=O)O)cc2c1CC(=O)O,i
COc1ccc(NC(=S)N2CCC3(CC2)OCCO3)cc1OC,i
CC(C)Oc1cccc(C(=O)N2CCCC2)c1,i
COc1ccc(NC(=O)COc2ccc(Cl)cc2Br)cc1OC,i
CCCCC(=O)Nc1ccc(C(=O)N2CCN(c3cccc(C(F)(F)F)c3)CC2)cc1,9.9µg/mL*
CC1CCc2c(oc3ccc(NS(=O)(=O)c4ccc(F)cc4)cc23)C1 (stereo not drawn),6%
CC(C)CNC(=O)c1ccccc1NC(=O)Nc1ccccc1,i
CC(C)c1csc2nc3n(c(=O)c12)CCCCC3,0%
COc1ccc(C)cc1S(=O)(=O)N(CC(=O)Nc1cccc(SC)c1)c1ccccc1,i
COc1ccc2nc(/C(C#N)=C\c3ccc(N4CCCC4)cc3F)[nH]c2c1,i
COc1ccc(S(=O)(=O)NC(C)(C)CO)cc1N(C)S(=O)(=O)c1ccc(C)cc1,i
Cc1cccc(N2C(=O)CNC2=S)c1,i
COc1ccccc1Oc1ccc(S(=O)(=O)Nc2ccncc2)cc1,i
COc1ccc(-n2c(SCc3nc4ccccc4s3)nnc2-c2cccnc2)cc1,i
c1csc(CNCCN2CCOCC2)c1,i
COC(=O)c1c(-c2ccc(F)cc2)csc1NC(=O)C1CCCO1 (stereo not drawn),i
COc1ccc(-c2[nH]ncc2-c2ccccc2)c(O)c1,i
CCC(C)c1ccc(NC(=S)NCCn2cc(Cl)cn2)cc1 (stereo not drawn),1%
Cc1c(NC(=O)c2sc3ccccc3c2Cl)cccc1-c1nc2cc(Cl)ccc2o1,2%
Clc1ccc(OCCOCCN2CCCC2)c(Cl)c1,i
O=C(NC12CC3CC(CC(C3)C1)C2)N1CCN(c2ccccn2)CC1,i
CCCCC(=O)Nc1ccc(C(=O)N2CCN(c3ccccc3F)CC2)cc1,2%
COC(=O)c1c(NC(=S)NN2CCOCC2)sc(C)c1-c1ccccc1,2%
CC1(C)CC(CCNCc2ccc3c(c2)OCO3)(Cc2ccccc2)CCO1 (stereo not drawn),i
CCCC1CCc2c(sc(NC(=O)C3CCCO3)c2C(N)=O)C1 (stereo not drawn),i
CC(NC(=O)c1ccc(Br)cc1)C(=O)NC1=NCCS1 (stereo not drawn),i
N#C/C(=C/c1cn(CC(=O)Nc2ccc(F)cc2)c2ccccc12)C(N)=S,1%
O=C(Nc1ccc(F)cc1)C1(c2ccccc2)CCOCC1,0%
Cc1cc(Cl)cc(Br)c1OCCCCn1cncn1,1%
C=CCn1c(SCC(=O)Nc2nc3ccccc3s2)nnc1-c1ccc(C)cc1,i
COCCn1c(-c2cccc(Cl)c2)n[nH]c1=S,i
COC(=O)CN1C(=S)N(c2cccc(C(F)(F)F)c2)C(=O)C1CC(=O)Nc1ccc(C(=O)OC)cc1 (stereo not drawn),i
O=C(Nc1nc(SCc2ccc(F)cc2)ns1)c1ccco1,i
COCCNC(=O)CCCOc1ccc(OC)cc1,i
Cc1cccc(C(=O)NC(=S)Nc2cccc(C(=O)O)c2)c1,i
CC(C)CCNC(=O)CN(C1CCCCC1)S(=O)(=O)c1ccc(Cl)cc1,1%
COC(=O)C1=C(C)N(C)C(=O)NC1c1cc(OC)c(Br)cc1OC (stereo not drawn),i
CCc1nc2ccccc2n1CC(N)=O,i
# (cont.)
SMILES,Mtb growth
COc1ccc(NC(=O)c2ccncc2)cc1OC,i
COc1ccc(-c2nnc(SCC(=O)Nc3nc(-c4ccc(C)c([N+](=O)[O-])c4)cs3)n2C)cc1,i
CC(=O)Nc1ccc(OCC(O)Cn2nc(C)cc2C)cc1 (stereo not drawn),i
CCCCn1c(=O)c2c(nc3n2CCS3)n(C)c1=O,i
O=C(Nc1ccc2c(c1)OCCO2)c1cc2c(s1)CCCC2,5%
O=C(Cn1cc(C(=O)c2ccccc2)c2ccccc21)NC1CCCCC1,i
O=C1CC(c2nc3ccccc3n2Cc2ccccc2)CN1c1cccc(C(F)(F)F)c1 (stereo not drawn),i
CCc1c(C(=O)NNC(=S)Nc2ccc3c(C)cc(=O)oc3c2)csc1C,i
CN(C)c1ccc(N2C(=O)CCC2=O)cc1,i
CCN1C(=O)C(NC(C)=O)c2ccccc21 (stereo not drawn),i
C=CCn1c(SCC(=O)c2cc(C)n(CCOC)c2C)nc2sc3c(c2c1=O)CCCC3,i
c1csc(COc2ccccc2CNC2CCCCC2)c1,8%
Cc1c(N(C)C(=O)c2ccc(Cl)cc2)c(=O)n(-c2ccccc2)n1C,i
O=C(Nc1ccccc1)C1(c2ccccc2)CCN(S(=O)(=O)c2ccccc2)CC1,0%
O=C(Cc1c(F)cccc1Cl)Nc1ncccn1,i

# Structures shown so far that have a cyano group, in the order listed:
SMILES,Mtb growth
N#Cc1c(NC(=O)CN2CCCCC2)sc2c1CCC2,i
COc1ccc2nc(/C(C#N)=C\c3ccc(N4CCCC4)cc3F)[nH]c2c1,i
N#C/C(=C/c1cn(CC(=O)Nc2ccc(F)cc2)c2ccccc12)C(N)=S,1%

# A different layout for part of the listing above.
mol | Mtb growth
O=C(Cc1c(F)cccc1Cl)Nc1ncccn1 | i
O=C(Nc1ccc2c(c1)OCCO2)c1cc2c(s1)CCCC2 | 5%
CC(=O)Nc1ccc(OCC(O)Cn2nc(C)cc2C)cc1 (stereo not drawn) | i
c1csc(COc2ccccc2CNC2CCCCC2)c1 | 8%
COc1ccc(NC(=O)c2ccncc2)cc1OC | i
CCc1c(C(=O)NNC(=S)Nc2ccc3c(C)cc(=O)oc3c2)csc1C | i
CCN1C(=O)C(NC(C)=O)c2ccccc21 (stereo not drawn) | i
CN(C)c1ccc(N2C(=O)CCC2=O)cc1 | i

# More records.
SMILES,Mtb growth
Cc1sc(NC(=O)CSc2nnc(CNC(=O)c3cccc([N+](=O)[O-])c3)n2C)nc1-c1ccccc1,12%
CC(C)(C)c1ccc(C(=O)N2CCN(CCNC(=O)C(=O)NCc3ccccc3)CC2)cc1,i
C#CCOC(=O)C1C2C=CC(C2)C1C(=O)O (stereo not drawn),i
CCCCNC(=S)Nc1cccc(C(F)(F)F)c1,i
Cc1cc(C)c(CCl)c(C)c1/C=N/Nc1ccc([N+](=O)[O-])cc1[N+](=O)[O-],1%

# Assay outcomes (PubChem BioAssay)
